Compound activity from PubChem.
Vaccinia inh: blocks a specific stage of Vaccinia orthopoxvirus infection | Vaccinia-infected cells, mCherry/Venus stage reporter fluorescence; active compounds read low; some inactives read as strong as hits | activity change (mCherry), % (concentration not given with the values) | 0.01% of 89,000 active;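 active means mCherry past -33% and 40 or more points under the early reporter, replicates agreeing; inconclusive means past -33% without that gap or agreement; tested in A549 cells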;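 further: scaled between vehicle wells and reference inhibitor wells; 23 nL library stock went into each well; one replicate is shown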
Vaccinia inh Venus: second read-out of Vaccinia inh, no call of its own (marks repeat the call); activity change (Venus), %; measured here: Venus reporter, other viral stage;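 negative = less Venus signal; first of two replicates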
* hit, by the source's call; u = inconclusive; x = no result given. These rows are one share of the data (hit frequency here may not be typical).

Below each SMILES – Vaccinia inh | Vaccinia inh Venus
- COc1ccc(NC(=O)Nc2ccc3c(c2)C(=O)N([C@H](C)CO)C[C@H](C)[C@H](CN(C)Cc2ccc(C(=O)Nc4ccccc4N)cc2)OCCCC[C@@H](C)O3)cc1
  39 | 17
- CCC(=O)N(C)C[C@H]1Oc2ncc(C#Cc3cccnc3)cc2C(=O)N([C@@H](C)CO)C[C@@H]1C
  20 | 10
- CCNC(=O)Nc1ccc2c(c1)C(=O)N(C)[C@@H]1CC[C@@H](CC(=O)NCc3ccc(F)cc3)O[C@@H]1CO2
  6 | 2
- O=C(C[C@H]1CC[C@H]2[C@@H](COC[C@H](O)CN2Cc2cccc(F)c2)O1)NCc1ccncc1
  5 | 5
- COc1ccc(C#Cc2ccc3c(c2)[C@]2(C(=O)N3)[C@H](C(=O)N3CCN(c4ncccn4)CC3)[C@H]3C(=O)O[C@H](c4ccccc4)[C@H](c4ccccc4)N3[C@@H]2c2ccc(OCCO)cc2)cc1
  -2 | 6
- CO[C@H]1CN(C)C(=O)c2ccc(NC(=O)C3CCCC3)cc2OC[C@@H](C)N(CC2CC2)C[C@@H]1C
  3 | 4
- C[C@H]1CN([C@@H](C)CO)C(=O)c2c(c3ccccc3n2C)-c2ccccc2CO[C@@H]1CN(C)C(=O)Oc1ccccc1
  u | x
- COc1ccc(-c2ccc3c(c2)O[C@H](CN(C)CC2CCOCC2)[C@@H](C)CN([C@@H](C)CO)S3(=O)=O)cc1
  -33 | -34
- CC=Cc1ccc2n(c1=O)C[C@H]1[C@H](CO)[C@@H](C(=O)N[C@H](C)c3ccccc3)[C@@H]2N1Cc1ccncc1 (mixture of isomers)
  1 | 15
- C[C@@H]1CN([C@@H](C)CO)C(=O)Cc2cc(NC(=O)Nc3ccc(F)cc3)ccc2O[C@H]1CN(C)Cc1ccc(Cl)c(Cl)c1
  u | x
- O=C(Nc1ccccc1)N1CC(=O)N2[C@H](C1)[C@H](c1ccc(C#CC3CCCC3)cc1)[C@@H]2CO
  u | x
- CCCNC(=O)Nc1ccc2c(c1)C(=O)N(C)C[C@@H](OC)[C@H](C)CN(Cc1ccc(-c3ccccn3)cc1)[C@H](C)CO2
  -30 | -17
- CO[C@@H]1CN(C)C(=O)c2cc(NC(=O)c3ccccc3)ccc2OC[C@H](C)N(C(=O)C2CC2)C[C@@H]1C
  -17 | -10
- CO[C@H]1CN(C)C(=O)c2cc(NS(=O)(=O)c3ccc(Cl)cc3)ccc2OC[C@H](C)NC[C@H]1C
  -3 | 5
- COc1ccc2c3c(n(C)c2c1)[C@@H](CO)N(C(=O)CN(C)C)CC31CCN(Cc2cncnc2)CC1
  -3 | -6
- C[C@@H]1CN([C@H](C)CO)C(=O)c2cccc(NS(C)(=O)=O)c2O[C@H]1CN(C)Cc1ccc(C(=O)O)cc1
  19 | 13
- CO[C@H]1CN(C)C(=O)c2cc(NC(=O)c3ccno3)ccc2OC[C@H](C)NC[C@H]1C
  7 | 30
- COc1ccc(NC(=O)N2CC(=O)N3[C@@H](CO)[C@@H](c4ccc(/C=C/c5ccccc5)cc4)[C@@H]3C2)cc1
  u | x
- C[C@@H]1CN([C@H](C)CO)C(=O)c2cc(NC(=O)c3ccccc3)ccc2O[C@@H](C)CCCCO[C@@H]1CN(C)C(=O)c1ccncc1
  0 | -11
- C[C@@H]1CCCCO[C@H](CN(C)S(C)(=O)=O)[C@H](C)CN([C@@H](C)CO)C(=O)c2cc(NC(=O)NC3CCCCC3)ccc2O1
  5 | -8
- O=C(NCC[C@@H]1CC[C@@H](NS(=O)(=O)c2cccc(F)c2)[C@H](CO)O1)Nc1cc(F)ccc1F
  -17 | -9
- C[C@@H]1CN([C@@H](C)CO)S(=O)(=O)c2ccc(C#Cc3cccnc3)cc2O[C@H]1CN(C)CC1CCCC1
  u | x
- COc1ccc2c3c([nH]c2c1)[C@H](CO)N(C(=O)c1ccccn1)CC31CN(C(=O)C2CCCC2)C1
  12 | 10
- CN1c2ccc(Br)cc2[C@H]2[C@H](CCN2C(=O)C2CCC2)[C@@H]1CO
  -16 | -12
- CC(=O)N(C)C[C@@H]1OCc2ccccc2-c2ccccc2C(=O)N([C@@H](C)CO)C[C@@H]1C
  17 | 8
- CCC(=O)Nc1ccc2c(c1)OC[C@H](C)N(CCC(F)(F)F)C[C@@H](C)[C@@H](OC)CN(C)C2=O
  0 | -3
- O=C(C[C@@H]1C[C@H]2c3cc(NC(=O)NC4CCCCC4)ccc3O[C@H]2[C@H](CO)O1)NCCc1ccccc1
  0 | 0
- O=C(C[C@@H]1C[C@@H]2c3cc(NC(=O)NC4CCCC4)ccc3O[C@@H]2[C@@H](CO)O1)NCc1ccc2c(c1)OCO2
  10 | 7
- COc1ccc2c3c(n(C)c2c1)[C@H](CO)N(Cc1ccc2c(c1)OCO2)CC31CN(C(=O)C2CC2)C1
  7 | 8
- N#C[C@H]1[C@H](c2ccccc2-c2cccc(F)c2)[C@H](CO)N1C(=O)CN1CCOCC1
  21 | 12

Record cards, as listed above. Order of values: Vaccinia inh | Vaccinia inh Venus
`COc1ccc2c3c(n(C)c2c1)[C@H](CO)N(Cc1ccc2c(c1)OCO2)CC31CN(C(=O)C2CC2)C1` across the screens: 7 | 8
`C[C@@H]1CN([C@@H](C)CO)S(=O)(=O)c2ccc(C#Cc3cccnc3)cc2O[C@H]1CN(C)CC1CCCC1` across the screens: u | x

New compounds follow:
Below each SMILES – Vaccinia inh | Vaccinia inh Venus
- C[C@H]1CN([C@@H](C)CO)C(=O)c2cc(C#CC(C)(C)O)cnc2O[C@@H]1CN(C)C(=O)CC1CC1
  15 | 4
- COc1ccc(NC(=O)Nc2ccc3c(c2)[C@@H]2C[C@H](CC(=O)N[C@@H](C)c4ccccc4)O[C@H](CO)[C@@H]2O3)cc1
  16 | 20
- C[C@@H]1CN([C@@H](C)CO)C(=O)Cc2cc(NS(=O)(=O)c3ccccc3)ccc2O[C@H]1CN(C)Cc1ccc(C(F)(F)F)cc1
  u | x
- C[C@@H]1CN([C@@H](C)CO)C(=O)c2cc(NC(=O)CCC(F)(F)F)ccc2O[C@@H](C)CCCCO[C@H]1CN(C)S(=O)(=O)c1cn(C)cn1
  18 | 19
- O=C(Nc1ccccc1)N1CCCCN2[C@@H](CO)[C@@H](c3ccc(-c4ccccc4F)cc3)[C@@H]2C1
  u | x
- O=C(C[C@@H]1CC[C@@H]2[C@H](COC[C@H](O)CN2Cc2cc(F)cc(F)c2)O1)NCc1cccc(F)c1
  -2 | -14
- O=C(CC(F)(F)F)N1C[C@@H]2[C@H](c3ccccc31)[C@@H](CO)N2C(=O)C1CC1
  -1 | 2
- C[C@H]1CN([C@@H](C)CO)C(=O)c2cc(NC(=O)c3ccncc3)ccc2O[C@@H]1CN(C)S(C)(=O)=O
  12 | 16
- Cc1ccccc1S(=O)(=O)NCC[C@@H]1CC[C@H](NC(=O)Nc2cccc(Cl)c2)[C@H](CO)O1
  -25 | -26
- C[C@H](CO)N1C[C@H](C)[C@H](CN(C)Cc2ccc(Oc3ccccc3)cc2)Oc2ccc(NC(=O)Nc3ccccc3)cc2C1=O
  u | x
- O=C(N[C@@H]1CC[C@H](CCn2cc(-c3ccc(F)cc3)nn2)O[C@H]1CO)c1cnccn1
  -3 | -6
- O=C(NCC[C@H]1CC[C@@H](NC(=O)c2ccc3c(c2)OCO3)[C@@H](CO)O1)Nc1ccc(Cl)cc1
  6 | 7
- CN(C)C(=O)C[C@@H]1CC[C@H]2[C@@H](COC[C@H](O)CN2C(=O)c2ccncc2)O1
  -11 | -6
- C[C@H](CO)N1C[C@H](C)[C@@H](CN(C)S(=O)(=O)c2ccc(Cl)cc2)Oc2ccc(NC(=O)C3CC3)cc2CC1=O
  -11 | 1
- CCC(=O)N(C)C[C@@H]1Oc2cc(-c3cccc(F)c3)ccc2S(=O)(=O)N([C@H](C)CO)C[C@H]1C
  10 | 1
- COc1ccc2c3c([nH]c2c1)[C@H](CO)N(C(=O)c1cccnc1)CC31CN(C(=O)NC(C)C)C1
  3 | 2
- C[C@H]1CN([C@@H](C)CO)C(=O)c2cc(C#CC3CCCCC3)cnc2O[C@H]1CN(C)Cc1ccncc1
  -2 | -4
- C[C@H](CO)N1C[C@H](C)[C@H](CN(C)S(=O)(=O)c2ccc(F)cc2)OCCCC[C@H](C)Oc2ccc(NS(=O)(=O)c3ccccc3)cc2C1=O
  u | x
- O=C(NC1CCCCC1)N[C@H]1C=C[C@H](CC(=O)N2CCOCC2)O[C@@H]1CO
  -15 | -9
- Cc1noc(C)c1S(=O)(=O)N(C)C[C@@H]1OCCCC[C@H](C)Oc2ccc(N(C)C)cc2C(=O)N([C@H](C)CO)C[C@H]1C
  -7 | 1
- Cc1ccccc1S(=O)(=O)N1CC[C@@H]2[C@H](CO)Nc3ccc(-c4ccccc4)cc3[C@@H]21
  -24 | -15
- O=C(CCN1CCCCC1)N[C@@H]1CC[C@@H](CCNS(=O)(=O)c2ccc(F)cc2)O[C@H]1CO
  18 | 11
- CNC[C@H]1Oc2c(NC(=O)C3CC3)cccc2C(=O)N([C@@H](C)CO)C[C@@H]1C
  5 | 2
- COc1ccc(NC(=O)N(C)C[C@H]2Oc3ccc(NC(=O)Nc4ccc(F)cc4)cc3CC(=O)N([C@H](C)CO)C[C@H]2C)cc1
  8 | 4
- CCS(=O)(=O)N1[C@H](CO)[C@H](c2ccc(C#CC(C)C)cc2)[C@@H]1C#N
  2 | 4
- C/C=C/c1ccc2c(c1)O[C@@H](CN(C)S(=O)(=O)c1ccc(C)cc1)[C@@H](C)CN([C@H](C)CO)S2(=O)=O
  u | x
- C[C@H](CO)N1C[C@H](C)[C@@H](CN(C)C)Oc2cc(C#Cc3ccccc3)ccc2S1(=O)=O
  -22 | -13
- C[C@@H]1CN([C@H](C)CO)S(=O)(=O)c2ccc(C#C[C@@H](C)O)cc2O[C@H]1CN(C)C(=O)CC1CC1
  16 | 12
- CO[C@@H]1CN(C)C(=O)c2cc(NC(C)=O)ccc2OC[C@@H](C)N(Cc2cc(-c3ccccc3)on2)C[C@H]1C
  9 | -4
- COCC(=O)N1CC2(C1)CN(Cc1cccc(F)c1)[C@H](CO)c1c2c2ccc(OC)cc2n1C
  18 | 10

Reformatted bar-delimited: part of the list above.
canonical_smiles | Vaccinia inh | Vaccinia inh Venus
COc1ccc(NC(=O)Nc2ccc3c(c2)C(=O)N([C@H](C)CO)C[C@H](C)[C@H](CN(C)Cc2ccc(C(=O)Nc4ccccc4N)cc2)OCCCC[C@@H](C)O3)cc1 | 39 | 17
C[C@H]1CN([C@@H](C)CO)C(=O)c2c(c3ccccc3n2C)-c2ccccc2CO[C@@H]1CN(C)C(=O)Oc1ccccc1 | u | x
CN(C)C(=O)C[C@@H]1CC[C@H]2[C@@H](COC[C@H](O)CN2C(=O)c2ccncc2)O1 | -11 | -6

New compounds follow.
Below each SMILES – Vaccinia inh | Vaccinia inh Venus
- O=C(Nc1ccc2c(c1)OCO2)N[C@@H]1CC[C@H](CC(=O)N2CCN(c3ccccc3)CC2)O[C@@H]1CO
  1 | 6
- Cc1noc(C)c1NC(=O)Nc1ccc2c(c1)C(=O)N([C@@H](C)CO)C[C@@H](C)[C@@H](CN(C)S(=O)(=O)c1cn(C)cn1)OCCCC[C@H](C)O2
  8 | 7
- CCCNC(=O)[C@H]1[C@H](CO)[C@H]2Cn3c(ccc(C4=CCCC4)c3=O)[C@@H]1N2C(=O)CC1CC1
  -1 | 4
- C[C@@H](NC(=O)C[C@H]1CC[C@@H](NC(=O)C2CCOCC2)[C@@H](CO)O1)c1ccccc1
  7 | 7
- CCCN(C)C[C@H]1OCCCC[C@H](C)Oc2ccc(NC(=O)Nc3cccc4ccccc34)cc2C(=O)N([C@@H](C)CO)C[C@H]1C
  -12 | -8
- C[C@@H]1CN([C@H](C)CO)S(=O)(=O)c2ccc(-c3cccc(C(=O)N(C)C)c3)cc2O[C@@H]1CN(C)C(=O)Nc1ccccc1
  3 | -1
- CCCNC(=O)N1C[C@H](C)[C@H](OC)CN(C)C(=O)c2cc(NS(C)(=O)=O)ccc2OC[C@H]1C
  4 | 7
- CN(C)C(=O)C[C@@H]1C=C[C@@H](NC(=O)c2ccc(F)cc2)[C@@H](CO)O1
  8 | 7
- CCC(=O)N1C[C@@H](C)[C@@H](OC)CN(C)C(=O)c2ccc(NC(=O)Nc3ccccc3)cc2OC[C@@H]1C
  -5 | -6
- Cc1ccccc1S(=O)(=O)N1CCCCN2[C@@H](CO)[C@@H](c3ccc(-c4ccccc4)cc3)[C@@H]2C1
  u | x
- COc1ccc(C#Cc2cnc3c(c2)C(=O)N([C@@H](C)CO)C[C@H](C)[C@@H](CN(C)CC2CCCC2)O3)cc1
  u | x
- CNC[C@H]1Oc2ncc(-c3ccc(OC)cc3)cc2C(=O)N([C@H](C)CO)C[C@@H]1C
  -16 | -9
- CCC(=O)N1[C@@H](CO)[C@H](c2ccc(-c3ccc(C#N)cc3)cc2)C12CN(C(C)=O)C2
  5 | 6
- CO[C@@H]1CN(C)C(=O)c2ccc(NC(=O)c3ccccc3)cc2OC[C@@H](C)N(C(C)=O)C[C@@H]1C
  22 | 20
- CC(C)NC(=O)Nc1ccc2c(c1)C(=O)N([C@H](C)CO)C[C@H](C)[C@H](CN(C)Cc1ccc(C(=O)O)cc1)OCCCC[C@H](C)O2
  4 | -3
- C[C@@H]1CCCCO[C@@H](CN(C)Cc2ccc(C(=O)O)cc2)[C@@H](C)CN([C@H](C)CO)C(=O)c2cc(NS(C)(=O)=O)ccc2O1
  20 | 14
- O=C(NCC[C@@H]1CC[C@H](NS(=O)(=O)c2ccc(Oc3ccccc3)cc2)[C@H](CO)O1)C1CC1
  -10 | -2
- COc1ccc(S(=O)(=O)N(C)C[C@@H]2Oc3ccc(NS(=O)(=O)c4cccs4)cc3CC(=O)N([C@H](C)CO)C[C@H]2C)cc1
  -9 | 5
- C[C@H]1CN([C@@H](C)CO)C(=O)c2cc(/C=C/c3ccccc3)cnc2O[C@H]1CN(C)C(=O)c1ccc(F)cc1
  -16 | -9
- COCC(=O)N1C[C@@H](C)[C@@H](OC)CN(C)C(=O)c2cc(NS(C)(=O)=O)ccc2OC[C@H]1C
  -9 | 4
